Screening data deposited in PubChem BioAssay by National Center for Advancing Translational Sciences (NCATS).
StopGo reporter: lowers the luciferase signal of an FMDV 2A StopGo reporter; human cells with a luciferase reporter of 2A StopGo recoding; control for the full effect not named in the record; Potency, µM (doses to about 57.9 µM), inactives show at the highest dose signal change, negative = less light; hit rate 1.2% among 410,000; AID 1159524; active = well fitted falling curve with a large enough effect; inconclusive = small, poorly fitted or top-dose-only effect; inactive = no such curve, though single readings can be large or run the other way; tested in HEK293T cells; note: % is set by controls: 0 for no effect and ±100 for the full control effect; nearly all actives have a fitted effect of over 45% in size; luciferase light after 4 h
SARS PLP yeast: SARS-CoV PLP inhibition in yeast. Potency, µM (top dose mostly 32.9 µM), for the others: at the top dose activity, positive = growth rescue. S. cerevisiae expressing SARS-CoV PLpro, growth rescue; control for the full effect not named in the record. hit rate 0.19% among 330,000; active means well fitted rising curve with a large enough effect; inconclusive means small, poorly fitted or top-dose-only effect; inactive means no such curve, though single readings can be large or run the other way; note: 0% is about no effect; nearly all actives have a fitted effect of over 55% in size; growth read by luminescence after 48 h
RE007 growth inh: less growth of the S. pombe RE007 Vpr strain. S. pombe RE007 Vpr strain, BacTiter-Glo ATP luminescence, 24 h; control for the full effect not named in the record. Potency, µM (series often up to 92.2 µM), without a hit: at the top dose activity change, negative = less growth. hit rate 0.21% among 360,000; active = well fitted falling curve with a large enough effect; inconclusive = small, poorly fitted or top-dose-only effect; inactive = no such curve, though single readings can be large or run the other way;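 note: % is set by controls: 0 for no effect and ±100 for the full control effect; nearly all actives have a fitted effect of over 50% in size; the assay follows cell death caused by Vpr and the record does not say whether a fall means rescue or toxicity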
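Fission yeast RE007 carrying one integrated HIV-1 vpr copy, seeded at OD 0.01 in PMG+AL medium with 23 nL pinned compound. Grown 24 h at 30 degrees; viability read by BacTiter-Glo luminescence after 5 min.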
The depositor's hits bear a star; ? = inconclusive; [ ] = dose if it differs, or a comment. Potency is the fitted concentration of half-maximal effect.

no.	Molecule	StopGo reporter	SARS PLP yeast	RE007 growth inh
1	COc1cccc(N2C(=O)/C(=C\c3cccs3)NC2=S)c1	14.4%	-0.6%	-7.8%
2	COC(=O)c1ccc(CSC2=NC[C@@H]3[C@@H]4C(=O)N(Cc5ccccc5)C(=O)[C@@H]4[C@](C)(C(=O)OC)N23)cc1	?	22.5%	2.9%
3	CCCCN1C(=N)N([C@@H](CCC)CN2CCC[C@H]2CN2C(N)=NC[C@@H]2Cc2ccccc2)C[C@H]1Cc1ccccc1	-20.6%	-0.4%	-15.3%
4	CCOC(=O)N1CCC(NCCNC(=O)c2cccc(F)c2)CC1	-16.0%	-7.8%	-7.7%
5	COc1ccccc1-c1sc2cc3c(cc2c1-c1ccc(OCCN2CCOCC2)cc1)OCO3	-28.1%	-24.6%	-16.9%
6	CC[C@@]1(C(=O)OC)N[C@H](CN(C)C(=O)Nc2ccc(C(F)(F)F)cc2)[C@@H]2C(=O)N(Cc3ccccc3)C(=O)[C@@H]21	-16.4%	-1.7%	-15.6%
7	CC(C)(C)OC(=O)NCCCCCNC(=O)c1nc[nH]c1C(=O)N1CCc2ccccc2C1	?	5.3%	14.3%
8	COc1ccc(S(=O)(=O)N2CCOCC2)cc1C(=O)NCC(c1ccco1)N1CCCC1 (stereo not drawn)	-8.2%	-0.5%	-3.0%
9	CC[C@]12c3[nH]c4cc(CCC(=O)N(C)C)ccc4c3CCN1C(=O)[C@@H](CC(=O)NCCCN(C)C)C[C@@H]2C(=O)N1CCN(C(=O)c2ccco2)CC1	-6.2%	14.8%	-4.5%
10	C=CCNc1nc(C(=O)OC(C)C(=O)c2ccc(C)cc2)cs1 (stereo not drawn)	44.1%[activator]	2.0%	-11.7%
11	Cc1ccc(OCC(=O)Nc2cccc3ccccc23)c([N+](=O)[O-])n1	-13.0%	-2.3%	13.9%
12	Cc1ccc2c(c1)Oc1ccc(NC(=O)CCCl)cc1C(=O)N2	-6.1%	-0.1%	10.4%

no.	Molecule	StopGo reporter	SARS PLP yeast	RE007 growth inh
13	COc1ccc(Cl)cc1NC(=O)CN(C)C1CCS(=O)(=O)C1 (stereo not drawn)	-6.7%	1.8%	6.6%
14	COc1cc(OC)cc(-c2c(-c3cccs3)c3cc(Br)ccc3n2C)c1	-19.4%	-17.9%	-0.8%
15	O=C(OCC(=O)N1CCCCCC1)c1cccc(Cl)c1	61.4%[activator]	13.0%	0.8%
16	C=CCNC(=O)Cc1ccc(S(=O)(=O)N2CCOCC2)s1	-8.6%	1.9%	0.6%
17	CCC(C)(C)C1CCC2(CC1)NC(=O)N(CC(=O)N(C)Cc1ccc3c(c1)OCCO3)C2=O (stereo not drawn)	?	3.4%	0.6%
18	Nc1ccc(-c2cc3ccccc3c(=O)o2)cc1	?	0.7%	-11.3%
19	C[C@H](CO)N1C[C@H](C)[C@@H](CN(C)S(=O)(=O)c2ccccc2)Oc2ccc(NC(=O)Cc3ccccc3)cc2C1=O	-0.8%	1.1%	2.8%
20	CCOC(=O)[C@@H]1[C@H]2COc3ccc(Br)cc3[C@H]2N2C(=O)N(c3ccc(Cl)cc3)C(=O)[C@]12C	-28.6%	1.9%	20.5%
21	COc1ccccc1-c1oc2ccccc2c1C#CC1(N)CCCCC1	-22.6%	-1.2%	-20.1%
22	Cn1cnnc1SCC(=O)NNC(=O)COc1ccc(Cl)cc1	-22.7%	-1.3%	-5.3%
23	CCC/C(=C1/c2ccccc2C(=O)N1c1ccccc1)c1cnc(OC)nc1	?	6.5%	3.4%
24	CC1CN(C(=O)c2ccc(Cl)c(S(=O)(=O)NCc3ccco3)c2)CC(C)O1 (stereo not drawn)	-3.3%	1.4%	-14.3%

no.	Molecule	StopGo reporter	SARS PLP yeast	RE007 growth inh
25	O=C(NNc1nc2cc3c(cc2s1)OCCO3)c1ccc(F)cc1	42.6%[activator]	4.1%	-2.6%
26	CC(NC(=S)Nc1ccc(OC(F)F)cc1)c1ccc(F)cc1 (stereo not drawn)	13.1%	-3.6%	-3.5%
27	COc1ccc(C(=O)COC(=O)C(O)c2ccccc2)c(OC)c1 (stereo not drawn)	85.8%[activator]	-6.8%	1.3%
28	O=C(COC(=O)c1ccc(Cl)nc1)c1ccc2c(c1)OCCO2	37.8%[activator]	-5.6%	-1.6%
29	CCCc1nc2c(s1)CCc1onc(-c3cccc([N+](=O)[O-])c3)c1-2	-2.0%	-3.4%	-3.2%
30	CCC(=O)C(C#N)(c1ccc(OC)c(OC)c1)C(C)C (stereo not drawn)	-15.4%	-0.8%	-4.7%
31	COc1cccc(NC(=O)CN(C)C(=O)c2ccc(-n3cncn3)c([N+](=O)[O-])c2)c1	-23.1%	1.7%	4.2%
32	Cc1ccc(C(=O)NCC(=O)OCC(=O)Nc2ccc(Cl)cn2)cc1	-15.7%	-26.6%	-2.2%
33	O=C(Nc1ccc(Cl)cc1F)c1ccc(-n2cncn2)cc1	29.2%	7.9%	0.5%
34	Cc1cc(C)c(NC(=O)c2c[nH]c(=S)n2-c2ccc(F)cc2)c(C)c1	-9.8%	-0.1%	18.8%
35	Cc1ccc(C2OC(=O)C=C2c2ccccc2)cc1 (stereo not drawn)	-10.1%	-3.3%	-7.7%
36	O=C(CCl)N1CCN(S(=O)(=O)c2ccc3c(c2)OCCCO3)CC1	25.1µM*	10.1%	2.5%

An excerpt from above, limited to StopGo reporter:
| no. | structure | StopGo reporter |
| --- | --- | --- |
| 33 | O=C(Nc1ccc(Cl)cc1F)c1ccc(-n2cncn2)cc1 | 29.2% |
| 28 | O=C(COC(=O)c1ccc(Cl)nc1)c1ccc2c(c1)OCCO2 | 37.8%[activator] |

Continuation.
no.	Molecule	StopGo reporter	SARS PLP yeast	RE007 growth inh
37	O=C(NCCOc1ccccc1)c1cccc2c1C(=O)c1ccc(Cl)cc1S2(=O)=O	9.2%	2.0%	-17.4%
38	CCOC(=O)CNC(=O)c1ccc(OCC(F)(F)F)cc1	48.5%[activator]	-0.6%	-1.7%
39	Cc1ccc(C)c(NC(=O)COC(=O)c2cc3ccccc3oc2=O)c1	-3.0%	5.6%	2.2%
40	O=C(CN1C(=O)NC(c2ccccc2)(c2ccccc2)C1=O)N1CCN(c2ccccc2F)CC1	-19.4%	1.5%	4.0%
41	COc1ccc(C(=O)OC(C)C(=O)NC2CCCC2)cc1S(=O)(=O)N1CCOCC1 (stereo not drawn)	-14.6%	0.9%	3.0%
42	CCOC(=O)C1=C(COC(=O)[C@H](C)NS(=O)(=O)c2ccc(NC(C)=O)cc2)NC(=O)NC1C (stereo partly drawn)	-6.4%	0.6%	-16.4%
43	O=C(CSc1nncs1)NC(=O)NCc1ccco1	0.9%	3.0%	-4.0%
44	COc1ccccc1C(=O)NCCC(=O)N1CCN(S(=O)(=O)c2ccc(Cl)cc2)CC1	-19.7%	-2.1%	1.2%
45	COc1cc(C(C)=O)ccc1OCC(=O)OCC(=O)c1cc(C)n(CC2CCCO2)c1C (stereo not drawn)	-8.6%	3.7%	-0.7%
46	Cc1ccc(NC(=O)c2ccc3c(c2)OCO3)cc1S(=O)(=O)N1CCOCC1	-3.9%	0.5%	-1.1%
47	COc1ccc(Cn2nnc3ccccc32)cc1	-19.9%	-2.0%	9.4%
48	CCCCn1nc(C(=O)Nc2c(C)n(C)n(-c3ccccc3)c2=O)c2ccccc2c1=O	-17.6%	2.8%	-1.6%

no.	Molecule	StopGo reporter	SARS PLP yeast	RE007 growth inh
49	COc1ccc(C(=O)COC(=O)CN2C(=O)C3CC=CCC3C2=O)c(OC)c1 (stereo not drawn)	38.3%[activator]	4.8%	-3.6%
50	CC(CNC(=O)CN1C(=O)NC2(CCOc3ccccc32)C1=O)c1ccccc1 (stereo not drawn)	-7.0%	-0.3%	-15.1%
51	Cc1onc(-c2ccccc2Cl)c1C(=O)Nc1cccc(S(=O)(=O)N2CCOCC2)c1	-22.7%	-3.1%	-4.8%
52	CCOc1ccc(S(=O)(=O)/N=C(/Nc2ccc(S(N)(=O)=O)cc2)c2ccccc2)cc1	20.4%	2.9%	0.5%
53	C[C@@H]1CN([C@@H](C)CO)C(=O)Cc2cc(NS(=O)(=O)c3ccccc3)ccc2O[C@H]1CN(C)S(C)(=O)=O	-20.7%	1.7%	-16.0%
54	Cc1[nH]nc(C(F)(F)F)c1CCC(=O)NC1CCCCCC1	-17.1%	0.6%	6.8%
55	COC(=O)c1c(-c2ccc(OC)cc2)sc2ccc(-c3ccc4c(c3)OCO4)cc12	4.7%	-1.4%	4.2%
56	C[C@H](CO)N1C[C@H](C)[C@@H](CN(C)C(=O)Nc2ccc3c(c2)OCO3)Oc2ccc(NS(=O)(=O)c3ccccc3)cc2C1=O	20.4%	10.4%	-2.8%
57	N#CCCN(C(=O)CO/N=C/c1cccc([N+](=O)[O-])c1)c1ccccc1	-11.3%	3.0%	-4.5%
58	CC1CCN(c2ccc(NC(=O)C3CCCN3S(=O)(=O)c3ccc(F)cc3)cc2)CC1 (stereo not drawn)	?	7.4%	-8.9%
59	COc1cccc(-c2cc(C(F)(F)F)nc(-n3cc(C)cn3)n2)c1	-23.3%	0.2%	4.8%
60	O=C(Cc1cccs1)NNC(=O)c1ccccc1Cl	4.4%	-10.4%	5.9%

no.	Molecule	StopGo reporter	SARS PLP yeast	RE007 growth inh
61	Cc1csc(NC(=O)CCCNC(=O)c2ccc(Cl)cc2)n1	4.0%	1.8%	0.0%
62	Cc1noc(C)c1NC(=O)Nc1cccc2c1O[C@@H](CN(C)C)[C@@H](C)CN([C@H](C)CO)C2=O	-9.8%	-3.0%	3.5%
63	S=C(NC1CC2CCC1C2)N1CCN(c2cccc(Cl)c2)CC1 (stereo not drawn)	?	-3.6%	-5.1%
64	CN(Cc1ccccc1)C(=O)c1ccc(NC(=O)Cc2cccc(NC(=O)C3CCN(C(=O)C4CCC4)CC3)c2)cc1	0.0%	5.4%	-9.3%
65	CC(c1ccccc1)C(NC(=O)OCC1c2ccccc2-c2ccccc21)C(=O)O (stereo not drawn)	-20.4%	-0.7%	3.4%
66	CCN(C[C@H]1N[C@@](C)(C(=O)OC)[C@H]2C(=O)N(Cc3ccccc3)C(=O)[C@@H]12)C(=O)c1ccc(F)cc1	-11.9%	0.1%	7.7%
67	N#C/C(=C\c1ccncc1)c1nc2c(s1)CCCC2	0.0%	-7.2%	-8.6%
68	O=[N+]([O-])c1cc(S(=O)(=O)NC2=NCCCCC2)ccc1NCC1CCCCC1	-13.6%	-4.0%	16.0%
69	COc1cccc(/C=C/C(=O)NNC(=O)c2ccco2)c1OC	26.1%	6.1%	-6.5%
70	CC(C)(C)[C@H]1CCC(=O)N([C@H](CSc2ccc(Br)cc2)Cc2ccccc2)CC1	-11.7%	-0.4%	-16.5%
71	CC(=O)N1CCN(CC(=O)Nc2cc(S(=O)(=O)N3CCCCC3)ccc2C)CC1	-7.6%	-0.7%	-4.2%
72	COC(=O)C1=C(c2ccc(F)cc2F)C[C@@H]2CC[C@H]1N2C(=O)NCc1ccc(F)cc1	-17.8%	-10.0%	8.9%

no.	Molecule	StopGo reporter	SARS PLP yeast	RE007 growth inh
73	C=CC[C@H](CC(=O)N(CCO)Cc1ccccc1)C(=O)N[C@H](COC(=O)[C@@H](CC=C)CC(=O)OC(C)(C)C)c1ccccc1	?	-5.4%	12.9%
74	CC(C)N(C(=O)[C@H]1C[C@H](CC(=O)NCCCn2ccnc2)C(=O)N2CCc3c([nH]c4cc(-c5ccco5)ccc34)[C@]12C)C(C)C	-25.5%	5.4%	1.8%
75	O=C1NCCOC(=O)[C@H](Cc2ccc(F)cc2)C/C=C\C[C@H]1CC(=O)N(CCO)Cc1ccccc1	?	4.9%	-5.1%
76	COc1ccc(C)cc1N=Nc1ccc(O)c2ncccc12	-23.2%	?	8.8%
77	CC(C)(C)OC(=O)C[C@@H]1C/C=C\C[C@@H](CC(=O)N(CCO)Cc2ccccc2)C(=O)NCCOC1=O	-8.3%	-7.2%	12.2%
78	COc1ccccc1Nc1nnc(SCC(=O)NC2CC2)s1	26.8%	-1.4%	-12.2%
79	CC[C@]12c3[nH]c4cc(-c5ccco5)ccc4c3CCN1C(=O)[C@@H](CC(=O)NCCCOC)C[C@@H]2C(=O)N1CCN(C(=O)c2ccco2)CC1	-23.4%	9.2%	0.3%
80	Cc1cc(S(=O)(=O)N2CCCC2)ccc1OCC(=O)Nc1ccc(C(N)=O)cc1	-10.4%	-7.3%	0.8%
81	Cc1noc(C)c1NC(=O)N(C)C[C@@H]1Oc2ccc(NC(=O)Cc3cn(C)c4ccccc34)cc2CC(=O)N([C@H](C)CO)C[C@@H]1C	-7.4%	14.2%	6.5%
82	O=C(Nc1cccnc1)c1ccc2nc(-c3ccccc3)c(-c3ccccc3)nc2c1	?	0.3%	-14.7%

This is a subset. The share of hits here may be higher or lower than overall.
